Screens as filed in PubChem.
KCNQ2 inh = KCNQ2 channel blockers in CHO-K1 cells – cell-based, FluxOR thallium flux, B-score, primary screen (AID 2156) | 20 min; hits give low values; only compounds with negative scores are shown here; some inactives read as strong as hits | hit rate 1.1% among 310,000 | B-score at 10 µM;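 active = fluorescence ratio B-score at most minus 3 library SDs, with starting brightness B-score within 2 library SDs, cut at about -5.5 in these data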
Target sequence (O88943 whole entry, looked up): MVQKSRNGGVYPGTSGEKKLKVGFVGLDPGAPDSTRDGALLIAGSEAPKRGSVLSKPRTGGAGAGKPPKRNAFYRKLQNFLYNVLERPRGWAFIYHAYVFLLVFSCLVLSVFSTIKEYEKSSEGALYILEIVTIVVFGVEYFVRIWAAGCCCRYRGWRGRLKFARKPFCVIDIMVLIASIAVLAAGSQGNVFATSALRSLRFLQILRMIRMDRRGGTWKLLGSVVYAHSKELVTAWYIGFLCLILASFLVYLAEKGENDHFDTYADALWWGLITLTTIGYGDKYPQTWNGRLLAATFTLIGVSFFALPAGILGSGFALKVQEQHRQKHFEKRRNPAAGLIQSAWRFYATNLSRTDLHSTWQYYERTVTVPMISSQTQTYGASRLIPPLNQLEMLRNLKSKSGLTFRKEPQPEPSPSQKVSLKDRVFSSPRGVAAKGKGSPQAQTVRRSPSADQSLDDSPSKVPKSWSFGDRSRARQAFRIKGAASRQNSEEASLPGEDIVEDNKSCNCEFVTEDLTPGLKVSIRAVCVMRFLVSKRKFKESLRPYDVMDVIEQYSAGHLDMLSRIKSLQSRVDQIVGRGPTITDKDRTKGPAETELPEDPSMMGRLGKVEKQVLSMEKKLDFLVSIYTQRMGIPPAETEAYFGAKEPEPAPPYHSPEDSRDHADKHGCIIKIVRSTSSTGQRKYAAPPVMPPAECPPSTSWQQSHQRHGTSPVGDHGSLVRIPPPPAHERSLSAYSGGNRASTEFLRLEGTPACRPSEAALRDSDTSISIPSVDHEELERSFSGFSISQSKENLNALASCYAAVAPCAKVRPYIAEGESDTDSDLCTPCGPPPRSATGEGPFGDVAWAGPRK
KCNQ2 inh baseline = recorded beside KCNQ2 inh, whose call it bears; B-score; measured here: initial fluorescence intensity artifact check;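 brightness before thallium and not channel activity; 0 = typical well and far values either way flag optical interference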
The depositor's hits bear a star; i = inactive. These rows are one share of the data; rates above refer to the full screens.

SMILES | KCNQ2 inh | KCNQ2 inh baseline
Cc1ccc2nc(-c3ccc(Br)o3)oc(=O)c2c1 | i | -0.87
Cc1ccc(N2C(=O)CC(Nc3cccc4ccccc34)C2=O)cc1 (stereo unspecified) | i | 1.14
O=[N+]([O-])c1ccccc1/C=C/c1ccc2ccccc2n1 | i | -0.42
Cc1cc(C)c(C(=O)Cn2nc(C(=O)O)c3ccccc3c2=O)cc1C | i | -0.2
COc1ccc(OCC(=O)Nc2ccc(S(=O)(=O)N3CCCCCC3)cc2)cc1 | i | -0.16
Cc1nnc(SCCn2c(N3CCC(C)CC3)nc3c2c(=O)[nH]c(=O)n3C)s1 | i | 1.7
CCN(CC)C(=O)c1ccc(CS(=O)(=O)c2ccc(Br)cc2)cc1 | i | 0.74
CCCCn1nc(C(=O)Oc2ccc3c(C)cc(=O)oc3c2)c2ccccc2c1=O | i | 1.71
Cc1ccccc1NC(=O)CSc1ccncc1 | i | -0.67
CC(C(=O)Nc1cc(C(F)(F)F)ccc1N1CCOCC1)N1C(=O)C2CC=CCC2C1=O (stereo unspecified) | i | 0.51
CCCOc1ccc(-c2c(C(=O)N/N=C/c3ccc(C)cc3)nnn2-c2nonc2N)cc1 | i | -0.76
CCOc1ccc(C(=O)Nc2ccc(S(=O)(=O)Nc3cc(C)on3)cc2)cc1 | i | -0.42
CCn1c(O)c(N=NC(=O)C2C(=O)NCC2c2ccccc2)c2ccccc21 (stereo unspecified) | i | 1.25
Cc1cccc(S(=O)(=O)NCCC(=O)OC(C)C(=O)NC(=O)NC2CCCCC2)c1 (stereo unspecified) | i | -0.11
CC1=CC(C)(C)n2c(O)c(C3=NC(=S)NC3=O)c3cc(OC(=O)c4cccc5ccccc45)cc1c32 | i | -0.62
Cc1ccccc1NC(=S)N(CCc1c(C)[nH]c2ccc(F)cc12)Cc1cccnc1 | i | 0.95

Given with two lines to a compound: entries from further up.
Order of results: KCNQ2 inh	KCNQ2 inh baseline
> Cc1ccccc1NC(=O)CSc1ccncc1
→ i	-0.67
> CC(C(=O)Nc1cc(C(F)(F)F)ccc1N1CCOCC1)N1C(=O)C2CC=CCC2C1=O (stereo unspecified)
→ i	0.51
> CCCOc1ccc(-c2c(C(=O)N/N=C/c3ccc(C)cc3)nnn2-c2nonc2N)cc1
→ i	-0.76
> CCOc1ccc(C(=O)Nc2ccc(S(=O)(=O)Nc3cc(C)on3)cc2)cc1
→ i	-0.42
> CCn1c(O)c(N=NC(=O)C2C(=O)NCC2c2ccccc2)c2ccccc21 (stereo unspecified)
→ i	1.25

The listing continues.
SMILES | KCNQ2 inh | KCNQ2 inh baseline
COc1ccc(C)cc1NS(=O)(=O)c1cn(C)nc1C | i | 0.22
Nc1n[nH]c2cccc(Cl)c12 | i | -0.08
COC(=O)NNC(=S)Nc1ccc(Br)cc1 | i | -0.03
Cc1cc(O)c(N=Cc2cc3c(cc2[N+](=O)[O-])OCO3)cc1C | i | 0.06
COc1ccc(CNC(=O)CC2C(=O)NCCN2CC(C)(C)C)c(OC)c1 (stereo unspecified) | i | -1.26
CC(=O)Nc1ccc(S(=O)(=O)N2CCC(C(=O)c3ccc(F)cc3)CC2)cc1 | i | 0.92
CN(CCc1ccccn1)C(=O)CC1C(=O)NCCN1Cc1ccccc1C(F)(F)F (stereo unspecified) | i | 0.54
COCC(=O)NCc1ccc2c(c1)OCO2 | i | -0.26
COC(=O)c1cc(OC)c(OC)cc1NC(=O)c1c(-c2ccccc2Cl)noc1C | i | -0.72
O=[N+]([O-])c1cccc(/C=N\N2CCN(Cc3ccccc3Cl)CC2)c1 | -7.26* | 0.08*
Nn1c(SCc2cccc(F)c2)nnc1-c1cccnc1 | i | -2.32
CN(C)/C=C/C(=O)c1cnc(-c2cccc(Cl)c2)s1 | i | -0.83
CCCC(=O)N1CC(=O)Nc2ccc(F)cc2C1c1ccccc1 (stereo unspecified) | i | 2.22
Cc1ccc(C(=O)Nc2ccncc2)cc1S(=O)(=O)N1CCOCC1 | i | -0.93
COc1ccc(S(=O)(=O)NC(C)C(=O)NCc2cccnc2)cc1Cl (stereo unspecified) | i | -0.03
COc1ccc(/C=N/NC(=O)c2ccoc2C)cc1COc1ccc(Cl)cc1 | i | -0.21
COC(=O)c1ccc(OCC(O)CN2C(=O)c3ccccc3S2(=O)=O)cc1 (stereo unspecified) | i | -0.74
Cc1ccc(C)n1CCN1CCN(CC(=O)Nc2cc(C(F)(F)F)ccc2Cl)CC1 | i | -1.31
CCN1CCCC1CNC(=O)c1ccc2c(c1)N(Cc1cccc(Cl)c1)C(=O)c1ccccc1S2(=O)=O (stereo unspecified) | i | -1.07
CCN(CC)S(=O)(=O)c1ccc(C(=O)Nc2ccc(OCC(=O)N3CCOCC3)cc2)cc1 | i | -1.21
CCOC(=O)CSc1nc2cc(C(=O)NCc3ccco3)ccc2c(=O)n1C1CCCCC1 | i | -0.54
COc1ccc(N(C)C(=O)c2cn(CC(C)C)c(=O)c3cc(OC)c(OC)cc23)cc1 | i | -0.04
COc1ccc(Nc2ncnc3ccc([N+](=O)[O-])cc23)c(OC)c1 | i | 1.35
CC(C)(CNC(=O)c1cc(-c2ccc(Cl)s2)nc2ccccc12)N1CCOCC1 | i | -0.45
Cc1ccc2nc(N3CCN(S(=O)(=O)c4ccc(C)c(Cl)c4)CC3)c(C#N)cc2c1 | i | 1
COc1cc(NC(=O)CN2CCN(c3ccccn3)CC2)cc(OC)c1OC | i | 0.18
O=C(CCSc1ccccc1)Nc1ccccc1Br | i | -0.01
CCOC(=O)c1c(C)[nH]c(C(=O)OCC(=O)N2CC(C)OC(C)C2)c1C (stereo unspecified) | i | 0.3
O=C1C=C(Nc2ccc(Cl)cc2Cl)CC(c2ccco2)C1 (stereo unspecified) | i | -0.77
O=C(O)c1sccc1SCc1ccc(Cl)c(Cl)c1 | i | -1.37
CCOc1ccc(CN2C(=O)CC(=O)N(S(=O)(=O)c3ccc(OCC)cc3)C2=O)cc1 | i | -0.53
CS(=O)(=O)N1CCC(C(=O)Nc2cccc(Br)c2)CC1 | i | 0.05
Cc1ccc(C)c(NC(=S)NCCc2c[nH]c3ccccc23)c1 | i | -0.4
CCOC(=O)CSc1nnc(NC(=O)c2cccc(S(=O)(=O)N3CCCC3)c2)s1 | i | -0.74
Cc1cc(OCC(=O)N(C)Cc2ccccc2)cc(C)c1Cl | i | -1.91
CCC(=O)Nc1ccc(N2CCN(S(C)(=O)=O)CC2)cc1 | i | 0.19
CCc1ccc(C2=NN(CCC(=O)NC3CCCCCC3)C(=O)CC2)cc1 | i | -0.05
O=C(c1cc2ccccc2o1)N1CCN(c2ccccc2Cl)CC1 | i | -0.93
Cc1nc([N+](=O)[O-])cn1CC(=O)Nc1ccc(F)c(Cl)c1 | i | 1.63
COc1ccc(NC(=O)CSc2cc(C)ccc2C)cn1 | i | 0.23

Next part:
Structure	KCNQ2 inh	KCNQ2 inh baseline
C=C(C)CSc1nnc(CCCCCNC(=O)OC(C)(C)C)o1	i	-2.26
O=C(C1=C(O)C(=O)N(c2ncccn2)C1c1ccc(Cl)cc1)c1ccco1 (stereo unspecified)	i	0.09
O=C(COc1ccccc1)N(Cc1ccccc1)c1nc(-c2ccccc2)cs1	i	-1.54
CC(=O)NNC(=O)c1cc2c3ccccc3n(C)c2s1	i	-1.33
COc1ccc(C(=O)C2CCN(CC(=O)Nc3ccccc3F)CC2)cc1	i	0.42
CCn1cnc2scc(-c3ccc(C)c(C)c3)c2c1=O	i	-0.53
O=C(Oc1ccc2c(c1)OCO2)c1ccc(F)cc1Cl	i	-0.06
CCCCOc1ccccc1NC(=O)c1ccco1	i	-0.69
COc1ccc(C(C)=O)cc1CSc1nnc(Nc2c(C)cccc2C)s1	i	0.31
CC(C)C(C)(C#N)NC(=O)CSc1nc2scc(-c3ccco3)c2c(=O)n1-c1ccccc1 (stereo unspecified)	i	-0.84
CCc1nnc(NC(=O)C2CCC(CNc3c(N4CCC(C)CC4)c(=O)c3=O)CC2)s1 (stereo unspecified)	i	-1.3
COC(=O)c1ccc(/C=C/C(=O)c2ccc(OC)c(OC)c2)cc1	i	0.06
CC(=O)Nc1ccc(S(=O)(=O)NCCSc2ccccn2)cc1	i	-0.21
CN1C[C@@H]2C(c3ccc(C(F)(F)F)cc3)C3(c4ccc(C#N)cc4)CC2(C3)[C@H]1c1ccccc1 (stereo partly specified)	i	-0.62
Cc1cccc(-c2cccc(NC(=O)C3CCCN(Cc4cccnc4)C3)c2)c1 (stereo unspecified)	i	1.63
CN(C)S(=O)(=O)Oc1ccsc1C(=O)Nc1ccc(Cl)c(Cl)c1	i	-0.27
Fc1ccc(-c2cn(-c3ccccc3)c3[n+]2CCS3)cc1	i	0.41
COc1ccc(C2C(C(=O)N3CCCC3)c3cc(OC)c(OC)cc3C(=O)N2C)cc1 (stereo unspecified)	i	-2.53
CCc1c(C)c(C#N)c2nc3ccccc3n2c1-n1nc(C)cc1C	i	0.87
CC(C)NS(=O)(=O)c1ccc(OCC(=O)NCc2ccccc2)cc1	i	-0.96
Cc1ccccc1CC1(CO)CCCN(Cc2c(C)nn(C)c2Cl)C1 (stereo unspecified)	i	-2.22
Cc1cc(C)n(-c2cc(N3CCN(S(=O)(=O)c4ccc(Br)cc4)CC3)ccc2[N+](=O)[O-])n1	i	1.17
Cc1nc2ccccn2c1C(=O)N/N=C/c1ccc([N+](=O)[O-])o1	i	0.55
N#C/C(=C\c1c(N2CCC(C(N)=O)CC2)nc2ccccn2c1=O)S(=O)(=O)c1ccc(Cl)cc1	i	-0.14
COc1cn(-c2ccccc2)nc1C(=O)NCc1ccccc1	i	-3.04
Cc1nc(C(=O)O)nn1-c1ccc([N+](=O)[O-])cc1	i	0.56
CCOC(=O)CCSc1cc(C)c2ccccc2n1	i	1.55
O=S(=O)(N/N=C1/CC(c2ccccc2)Oc2ccccc21)c1ccc(Br)cc1 (stereo unspecified)	i	-1.99
O=C(NCC(=O)N(c1cnc2ccccc2c1)C(C(=O)NC1CCCC1)c1ccncc1)c1ccco1 (stereo unspecified)	i	0.39
CC(=O)Nc1ccc(S(=O)(=O)N2CCC3(CC2)OCCO3)cc1	i	-0.12

Compounds shown so far that contain a cyano group (five):
Structure	KCNQ2 inh	KCNQ2 inh baseline
Cc1ccc2nc(N3CCN(S(=O)(=O)c4ccc(C)c(Cl)c4)CC3)c(C#N)cc2c1	i	1
CC(C)C(C)(C#N)NC(=O)CSc1nc2scc(-c3ccco3)c2c(=O)n1-c1ccccc1 (stereo unspecified)	i	-0.84
CN1C[C@@H]2C(c3ccc(C(F)(F)F)cc3)C3(c4ccc(C#N)cc4)CC2(C3)[C@H]1c1ccccc1 (stereo partly specified)	i	-0.62
CCc1c(C)c(C#N)c2nc3ccccc3n2c1-n1nc(C)cc1C	i	0.87
N#C/C(=C\c1c(N2CCC(C(N)=O)CC2)nc2ccccn2c1=O)S(=O)(=O)c1ccc(Cl)cc1	i	-0.14

Later entries:
Structure	KCNQ2 inh	KCNQ2 inh baseline
OC1CCCN(CC(O)c2ccccc2)C1 (stereo unspecified)	i	1.12
COc1ccc(CCN2C(=O)CC(NNc3ccc([N+](=O)[O-])cc3)C2=O)cc1OC (stereo unspecified)	i	0.06
CCN(CC)CCCNc1nc(SC)nc2sc3c(c12)CCN(C)C3	i	-0.08
NC(=O)c1ccc(NC(=O)CSC2=Nc3ccccc3C3CC=NN23)cc1 (stereo unspecified)	i	-1.83
CC1(/[N+]([O-])=C/c2ccc(Cl)cc2Cl)CCCCC1=O (stereo unspecified)	i	-0.23
CCCN(Cc1nnc(-c2ccccc2Cl)o1)C(=O)c1cc(S(=O)(=O)N2CCOCC2)ccc1F	i	-0.08
Cc1c(Cl)cccc1NC(=O)Cc1ccc([N+](=O)[O-])cc1	i	2.2
CNC(=O)c1cc2cc(Cc3ccccc3Cl)ccc2oc1=O	i	0.16
Cc1ccc(N2C(=O)CC(Sc3ncn[nH]3)C2=O)cc1C (stereo unspecified)	i	-0.16
O=C(Nc1nnc(-c2cccs2)o1)C1CC1	i	-2.73
Cc1onc(-c2ccc(Cl)cc2Cl)c1-c1csc(N/N=C/c2ccccc2Cl)n1	i	0.43
O=C(CCl)Nc1cccc(Oc2ccccc2)c1	i	1.82
CN(C)c1ccnc2sc3c(SCc4ccc(Cl)cc4)ncnc3c12	i	0.34
COc1ccccc1OC(C)C(=O)N1CCN(Cc2ccc3c(c2)OCO3)CC1 (stereo unspecified)	i	0.19
O=C(NC(=S)NCCO)c1sc2ccccc2c1Cl	i	-0.74
Cc1cccc(NC(=O)CCN2C(=O)C3C4C=CC(C4)C3C2=O)c1 (stereo unspecified)	i	0.12
O=C(CSc1nccn1-c1ccccc1)NO	i	2.7
CNC(=S)NC1CC2CCCC(C1)N2Cc1ccccc1OC (stereo unspecified)	i	0.54
CC(C)[C@H](NC(=O)OCc1ccccc1)C(=O)OCC(=O)NCCc1ccccc1	-7.07*	1.37*
CCN(CC)S(=O)(=O)c1cccc(C(=O)N/N=C/c2ccc([N+](=O)[O-])o2)c1	i	-0.22
CCc1cccc2c(C(=O)CSc3nnc(-c4ccoc4C)n3C)c[nH]c12	i	0.65
CSc1ccccc1OCc1cc(C(=O)N2CCC(c3ccncc3)CC2)no1	i	-0.72
O=C1c2oc3ccccc3c(=O)c2C(c2cccc(F)c2)N1CCCO (stereo unspecified)	i	-0.05
C=CCNC(=O)CSc1nnc(-c2ccccn2)n1Cc1ccccc1	i	0.06
Cc1cc(-c2nnc(-c3cccc(Cl)c3)o2)no1	i	0.43
COc1ccc2o/c(=N\O)c(C(=O)Nc3ccccc3OC)cc2c1	i	0.55
O=C(Nc1ccc(S(=O)(=O)Nc2nccs2)cc1)C1CC(=O)N(c2ccc(Cl)cc2)C1 (stereo unspecified)	i	0.36
O=C(COC(=O)c1cc([N+](=O)[O-])ccc1N1CCOCC1)c1ccccc1Cl	i	-0.11
COc1ccc(C2=CC(c3cccc(OC)c3)n3nnnc3N2)cc1 (stereo unspecified)	i	-1.07
Cn1c(SCC(=O)C(C)(C)C)nnc1-c1ccccn1	i	3.02
